NPR1 antag – human Npr1 receptor antagonism. HEK293 hNpr1 GloSensor cGMP, ANP-stimulated luminescence. Potency, µM (highest dose often 46.3 µM), for inactives: at the top dose activity change, negative = inhibition, usual class: inhibitors. 1.6% of 76,000 active. AID 1347048; active = well fitted inhibition curve with a large enough effect; inconclusive = small, poorly fitted or top-dose-only effect; inactive = no such curve, though single readings can be large or run the other way;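 note: nearly all actives have a fitted effect of over 60% in size; nearly all hits also lower the signal before the agonist is added; a reference antagonist and vehicle were the controls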
Target sequence (P16066 whole entry, looked up): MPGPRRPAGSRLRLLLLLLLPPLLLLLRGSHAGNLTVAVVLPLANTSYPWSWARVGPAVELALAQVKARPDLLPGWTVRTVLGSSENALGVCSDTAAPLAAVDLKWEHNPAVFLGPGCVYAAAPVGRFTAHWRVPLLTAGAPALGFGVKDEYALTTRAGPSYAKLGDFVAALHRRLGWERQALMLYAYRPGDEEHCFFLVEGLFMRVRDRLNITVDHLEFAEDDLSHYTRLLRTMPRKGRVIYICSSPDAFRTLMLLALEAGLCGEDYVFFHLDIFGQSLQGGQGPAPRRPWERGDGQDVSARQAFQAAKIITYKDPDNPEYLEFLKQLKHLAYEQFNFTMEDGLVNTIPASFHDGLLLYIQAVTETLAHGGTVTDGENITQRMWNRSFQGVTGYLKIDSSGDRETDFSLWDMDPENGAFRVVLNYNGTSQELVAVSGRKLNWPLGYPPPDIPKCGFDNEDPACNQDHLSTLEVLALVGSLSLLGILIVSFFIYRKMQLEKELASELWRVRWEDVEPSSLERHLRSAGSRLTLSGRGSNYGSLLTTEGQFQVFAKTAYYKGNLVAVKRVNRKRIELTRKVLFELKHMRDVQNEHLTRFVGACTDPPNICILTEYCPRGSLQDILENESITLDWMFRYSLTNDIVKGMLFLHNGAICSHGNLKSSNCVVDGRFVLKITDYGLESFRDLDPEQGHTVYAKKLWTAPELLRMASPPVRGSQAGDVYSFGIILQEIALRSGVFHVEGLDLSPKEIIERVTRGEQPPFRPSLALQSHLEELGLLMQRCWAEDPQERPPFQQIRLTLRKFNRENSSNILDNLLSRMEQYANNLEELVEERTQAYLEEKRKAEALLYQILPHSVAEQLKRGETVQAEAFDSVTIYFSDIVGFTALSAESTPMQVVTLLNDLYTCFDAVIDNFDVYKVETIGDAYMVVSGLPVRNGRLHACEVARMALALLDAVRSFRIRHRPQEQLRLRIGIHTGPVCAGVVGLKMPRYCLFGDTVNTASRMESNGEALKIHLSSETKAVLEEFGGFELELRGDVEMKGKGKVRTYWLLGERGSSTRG
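Compound pre-incubated 30 min at room temperature on GloSensor-loaded HEK293 cells stably carrying hNpr1 and the pGS-40F cGMP biosensor. Stimulation uses hNppA at 0.1 nM final; luminescence is taken at baseline and 20 min post-agonist.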
The depositor's hits bear a star; ? = inconclusive; [ ] = remark or other dose. % is set by controls: 0 for no effect and ±100 for the full control effect; potency is the fitted concentration of half-maximal effect. Not all compounds are listed. The share of hits here may be higher or lower than overall.

| NPR1 antag | SMILES |
| --- | --- |
| -5% | Cn1cnc2cc(NC(=O)C[C@H]3NC(=O)c4ccccc4NC3=O)ccc21 |
| 1% | COc1ccccc1CNC(=O)CN1CCn2nc(C(C)O)cc2C1 (stereo not drawn) |
| 5%[70.6 µM] | CN1C[C@H](NCc2nccn2C)CCC[C@@H](C(=O)N(C)Cc2cccnc2)CC1=O |
| -3% | O=C(Cc1c[nH]c2ccccc12)N1CCC(Cc2nc(C3CC3)n[nH]2)C1 (stereo not drawn) |
| -5% | CSCc1ccc(C(=O)N2CC[C@@H]3[C@@H](CCC(=O)N3CCN)C2)o1 |
| 3%[70.6 µM] | CN1[C@@H](CCC(=O)N2CCCC2)CNC(=O)[C@@H]2[C@H]1CCN2CC(C)(C)C |
| 0% | O=C(NC1CCCN(c2cc(-c3ccccc3)[nH]n2)C1)c1cccc(F)c1 (stereo not drawn) |
| 5% | COc1ccc(CNC(=O)CN2C(=O)NC3(CCCCC3)C2=O)cc1 |
| -13% | CN1CCCCCCN(C(=O)CCc2ccccc2)[C@H]2CCC[C@H]2C1=O |
| -23% | Cc1nc(-c2ccc(Cl)cc2)n(Cc2ccc(F)c(F)c2)c(=O)c1CCO |
| -14% | O=C1[C@H]2CN(Cc3c[nH]c4ccccc34)C[C@H]2C(=O)N1CCc1ccccc1 |
| -26% | CCC1(CC)CC1C(=O)N1CCc2onc(-c3cccc(F)c3)c2C1 (stereo not drawn) |
| 2% | O=C(Cn1ccn2nc(-c3ccc(F)cc3)c(CO)c2c1=O)N1CCc2ccccc21 |
| -3% | O=C(NCc1ccc(N2CCCCC2)cc1)C1CCCN(c2cn[nH]c(=O)c2)C1 (stereo not drawn) |
| 3% | CCOc1ccccc1NC(=O)CN1C(=O)C(c2ccccc2)=NC12CCCCCC2 |
| 0% | COc1ccc(-c2noc(-c3cccn3CC(=O)Nc3ccc(F)cc3)n2)cc1F |
| -11% | COc1cccc(CNC(=O)[C@@]23CCCC[C@H]2N(CCc2ccccc2)C(=O)CC3)c1OC |
| 6% | CN(C)C[C@@H]1CN(C)C[C@H]1NC(=O)C1CCC1 |
| 4% | O=C(NCc1cccnc1)[C@@H]1C[C@@H](O)CN1C1CCN(C(=O)c2n[nH]c3ccccc23)CC1 |
| -9% | COC(=O)c1ccc(NC(=O)Cn2c(C)cc3nc4n(c(=O)c32)CCCCC4)cc1 |
| -5% | CC1CCN(C(=O)[C@@H](C)C2CC[C@@]3(C)CC[C@H](NC(=O)c4cnccn4)[C@@H](C)[C@@H]3[C@H]2O)CC1 (stereo partly drawn) |
| 0% | Cc1ccc(NC(=O)Cn2ccn3nc4c(c3c2=O)CC(C)CC4)cc1 (stereo not drawn) |
| 4% | O=C(Nc1ccccc1F)NC1CCN(C(=O)N2CC3CC(C2)[C@H]2CCCC(=O)N2C3)CC1 (stereo partly drawn) |
| -11% | COc1ccc(Cl)cc1C(=O)N1CCc2c(nc3cc(-c4ccccc4)[nH]n3c2=O)C1 |
| -7%[70.6 µM] | CC1CCN(CC[C@@H]2CC[C@H](O)[C@@H](C(=O)Nc3ccccc3)O2)CC1 |
| -9% | CC(C)(C)CC(=O)N1CCC(C(NC(=O)c2ccccc2)C(=O)NCc2ccco2)CC1 (stereo not drawn) |
| -1%[70.6 µM] | COCCNC(=O)c1cc(-c2ccc(F)cc2OC)cc2ncn(C)c12 |
| 1% | CN1CCCCC(CC(=O)NCc2ccc(Cl)cc2)C1=O (stereo not drawn) |
| -14% | Cc1ccc(-c2nnc(C3CN(C(=O)C4(c5ccccc5)CC4)CC34CCOCC4)o2)cc1 (stereo not drawn) |
| ? | COc1cc(F)cc(-c2ncc3c(n2)OCCN(C)C3=O)c1 |
| -2% | Cc1nnnn1CC(=O)N1CCCC(c2ccccc2)(c2ccccc2)C1 |
| -21% | Cc1cc(COc2ccccc2)oc1C(=O)N1CCn2nc(C(C)O)cc2C1 (stereo not drawn) |
| 0% | Cc1cc(=O)n(CC(=O)Nc2c(C)cccc2C)c(-c2ccc(F)cc2)n1 |
| 0% | CN(C)CCNC(=O)c1c(OCC2CC2)cc(=O)n2c1CCOCC2 |
| 7%[70.6 µM] | COc1ccc(CNCC2(COc3cccnc3)C[C@@H](O)[C@@H](O)C2)cc1 (stereo partly drawn) |
| -1% | CCC[C@@H]1CN(C(=O)CCc2c(C)nn(C)c2C)C[C@H]1NS(C)(=O)=O |
| -1%[70.6 µM] | Cc1ccc(-c2cc3c(ccn3Cc3cccnc3)c(C3=CCOCC3)n2)cn1 |
| 1% | O=C(c1cc2c(s1)CCC(C(=O)N1CCN(C3CCCCC3)CC1)C2)N1CCCC1 (stereo not drawn) |
| 1% | Cc1nc2ccc(Cl)cn2c1C(=O)N1CCC2(CCCN(C)C2=O)C1 (stereo not drawn) |
| -11%[70.6 µM] | N#Cc1cccc(CN2Cc3[nH]cnc3C[C@H]2c2nc(-c3cccc([N+](=O)[O-])c3)no2)c1 |

A different layout for three compounds above.
canonical_smiles	NPR1 antag
Cc1nc2ccc(Cl)cn2c1C(=O)N1CCC2(CCCN(C)C2=O)C1 (stereo not drawn)	1%
Cc1nnnn1CC(=O)N1CCCC(c2ccccc2)(c2ccccc2)C1	-2%
Cc1cc(COc2ccccc2)oc1C(=O)N1CCn2nc(C(C)O)cc2C1 (stereo not drawn)	-21%

(listing goes on)
| NPR1 antag | SMILES |
| --- | --- |
| 0% | O=C(COc1ccccc1)N[C@@H]1C[C@H](Cn2cc(-c3cccnc3)nn2)[C@@H](O)[C@H]1O |
| ? | COc1ccc(-c2cnc([C@@H]3COCCN3Cc3nc4ccccc4n3C)[nH]2)cc1 |
| 0% | O=C(CCc1ccc2c(c1)OCO2)NC1CC(=O)N(CC2CCCCC2)C1 (stereo not drawn) |
| -9% | O=C(NC1CCN(c2ccc(=O)n(CC3CC3)n2)CC1)c1cnccn1 |
| -13% | Cc1cc(Cl)ccc1S(=O)(=O)N1CCn2c(nn(CC3CC3)c2=O)C1 |
| -12%[70.6 µM] | C[S+](=O)([O-])Nc1cccc(-c2cc(-c3cccnc3)c3cncn3c2)c1 |
| -1%[70.6 µM] | CC(C)CC(=O)N1CCOCC12CCN(Cc1cccc(C#N)c1)CC2 |
| 1% | COc1c(F)ccc(C(=O)NC2CC(=O)N(CCc3ccc(F)cc3)C2)c1F (stereo not drawn) |
| 1% | CCOCCCNC(=O)CN1CCCc2nc(C3CC3)ncc2C1=O |
| -2% | COc1cccc(C2Cn3nnc(-c4nc(-c5ccccc5Cl)no4)c3CO2)c1 (stereo not drawn) |

As entered above:
NPR1 antag with CCOCCCNC(=O)CN1CCCc2nc(C3CC3)ncc2C1=O = 1%
NPR1 antag with Cc1cc(Cl)ccc1S(=O)(=O)N1CCn2c(nn(CC3CC3)c2=O)C1 = -13%
NPR1 antag with COc1cccc(C2Cn3nnc(-c4nc(-c5ccccc5Cl)no4)c3CO2)c1 (stereo not drawn) = -2%

Other results follow:
| NPR1 antag | SMILES |
| --- | --- |
| -8% | Cn1nccc1CN1CCC2(CC1)CC(=O)c1ccc(Cl)cc1O2 |
| 8% | O=c1[nH]nc2n1CCC(NS(=O)(=O)Cc1ccc(F)cc1)CC2 (stereo not drawn) |
| 0% | CC(=O)NCC(=O)N1CC[C@@H]2COCCN(Cc3ccccc3)[C@@H]2C1 |
| 6% | OC1CC([C@@H](Cc2ccccn2)NC2CCN(Cc3ccco3)CC2)C1 (stereo partly drawn) |
| -19% | O=C(c1cccs1)N1CCC2(CC1)CN(Cc1ccccc1)CC2CO (stereo not drawn) |
| ? | CCc1ccc(C(=O)N2CCC3(CC2)N=C(c2ccc(Br)cc2)NO3)cc1 |
| 7% | O=C(O)CCC(=O)N[C@H]1CCN2C(=O)c3cc(-c4ccc5c(c4)OCO5)ccc3NC(=O)[C@H]12 |
| 5% | COc1cc2c(cc1NS(C)(=O)=O)C(c1cccc3c1OCO3)CC(=O)N2 (stereo not drawn) |
| 14% | CC(C)n1cnnc1-c1nn(C)c2c1CN(C(=O)CCc1c[nH]c3ccccc13)CC2 |
| -7% | COc1ccccc1NC(=O)Cn1c(C)cc2nc3n(c(=O)c21)CCCCC3 |
| -29% | O=C(CN1C(=O)NC(c2ccc(Cl)cc2)C2=C1COC2=O)Nc1cc(F)cc(F)c1 (stereo not drawn) |
| -11% | O=C(NCC1CCN(Cc2cccc(F)c2)CC1)[C@@H]1COCC(=O)N1Cc1ccccc1 |
| -1% | O=C(c1cc(Cl)ccc1F)N1CCC[C@H]1c1nc(-c2ccccc2)no1 |
| -1% | COCC(=O)N[C@H]1C[C@@H](CO)N(Cc2cccc(OC)c2)C1 |
| -5% | COCC(=O)N(C1CCOCC1)C1CCN(S(=O)(=O)c2cccc(F)c2)CC1 |
| 3% | Cc1cccc(CNC(=O)C2CCc3sc(C(=O)N4CCOCC4)cc3C2)c1 (stereo not drawn) |
| 14%[70.6 µM] | COc1cccc(C(=O)N(C)C2CCc3ccccc32)c1 (stereo not drawn) |
| 7% | CCc1ccccc1NC(=O)N1CCC(OC2CCN(S(C)(=O)=O)CC2)CC1 |
| 10µM* | CCc1ncc2c(=O)n(Cc3ccc(OC)cc3)ccn12 |
| 7% | O=C(NCCF)c1cccc(S(=O)(=O)NCCCc2ccncc2)c1 |
| 3% | Cc1nnc2n1C(C)CN(C(=O)CCCc1nc(-c3ccncc3)no1)C2 (stereo not drawn) |
| 1% | CCC(C(=O)N1CCC(C(=O)N2CCCC2)CC1)n1cccn1 (stereo not drawn) |
| -14%[70.6 µM] | O=c1[nH]ccn1C1CCN([S+](=O)([O-])c2cccs2)CC1 |
| 9% | Fc1cc(Cl)ccc1C1c2nc[nH]c2CCN1Cc1ccccn1 (stereo not drawn) |
| -2% | CCc1ccccc1NC(=O)c1c(OC)cc(=O)n2c1CCCC2 |
| 2% | CCOC(=O)N1CCC2(CC1)N=C(CCC(C)C)NC2=O |
| 3% | CCCN1CCN(C(=O)c2c(C)sc3ccn(CC(C)C)c(=O)c23)CC1 |
| 3% | O=C1CCN(C(=O)C2CCOCC2)CCCC(c2nc(-c3ccccc3)no2)CCN1 (stereo not drawn) |
| -1% | CCOc1ccccc1C(=O)N1CCC[C@H]1c1nc(-c2ccc(F)cc2)no1 |
| 4% | COCC1CN(Cc2cc(Br)ccc2OC)CC12CCNCC2 (stereo not drawn) |
| 7% | COCCS(=O)(=O)c1ncc(CN2CCCCO2)n1Cc1ccccc1 |
| 5% | Cc1noc(C)c1CC(=O)N1CCCCCCNC(=O)CC1 |
| -1% | O=C(c1ccccc1C(F)(F)F)N1CCC(n2cnnc2C2CC2)CC1 |
| 9% | CCn1c(C2CCN(C(=O)CCNC(=O)c3ccc(F)cc3)CC2)n[nH]c1=O |
| ? | O=C(CCC1CCCN(Cc2cc3ccccc3s2)C1)Nc1ccccc1F (stereo not drawn) |
| 1% | Cc1cccc(CC(=O)N2CC(c3nc(CCc4ccccc4)no3)C2)c1 |
| 2% | Cc1cc(C)n(CC2(CNC(=O)c3cc(S(N)(=O)=O)ccc3F)CC2)n1 |
| -11%[70.6 µM] | CC(C)CNc1ccc2c(n1)C(C)(C(=O)NC1COC1)CN(Cc1ccccc1)C2 (stereo not drawn) |
| 0% | COc1c(F)cc(CN2CCCC3(CCNC3)C2)cc1F (stereo not drawn) |
| -8% | C[C@@H]1CN(C(=O)c2scc3c2CCCC3)C[C@@]1(O)C1CC1 |
| -11% | CC(C)c1nc(CNC(=O)c2ccc(NC3CCCCC3)nc2)no1 |
| 6% | O=C(NCCN1CCCC1)c1cnc2c(c1)N(C(=O)Cc1cccc(C(F)(F)F)c1)CCC2 |
| 7% | CCN1C(=O)CCN(C(C)=O)CC12CCOCC2 |
| -1% | COc1ccc(NC(=O)Cn2ccn3nc(-c4ccc(F)cc4)c(CO)c3c2=O)cc1OC |
| -3% | Cc1[nH]ncc1C(=O)N1CCOC(Cc2ccc(F)cc2)C1 (stereo not drawn) |
| -4% | CC1(c2ccccc2)N(Cc2ccccc2C#N)C(=O)OC12CCN(C(=O)Cc1ccccn1)CC2 (stereo not drawn) |
| -24% | CC(C)(C)CC(=O)NC1CCN(c2cnn(CC3CC3)c(=O)c2)CC1 |
| 1% | Cc1ccc(Cn2c(C3CCN(C(=O)c4ccc(C)s4)CC3)n[nH]c2=O)cc1 |
| 6% | O=C(NCc1ccncc1)C1CN(S(=O)(=O)c2ccc(F)cc2)CC12CCOCC2 (stereo not drawn) |
| 3% | c1ccc2c(c1)cnn2CCCNc1ncncn1 |

Carrying on:
| NPR1 antag | SMILES |
| --- | --- |
| 0% | Oc1ccccc1CNC[C@H]1O[C@H](Cc2cc(CN3CCN(c4ccccc4)CC3)on2)CC[C@@H]1O |
| 0%[70.6 µM] | CCN1C(=O)COC[C@@H]1[C@H](O)c1ccc(NC(=O)c2ccco2)cc1 |
| 4%[70.6 µM] | CC(C)CCN1CCOc2cc(C(=O)NCc3ccccc3)ccc2C1 |
| 5% | CCc1csc(CNC2CCN(C(=O)c3ccccc3)CC2)n1 |
| 1%[70.6 µM] | CNCC(=O)N[C@@H]1C=C(C(=O)N[C@H](CC(C)C)C(N)=O)C[C@@H](O)[C@@H]1O |
| -1% | CC(C)CCNC(=O)c1c(OCC2CC2)cc(=O)n2c1CCCCC2 |
| 8%[70.6 µM] | Cc1cc(C)nc(N2CC3(COCC(=O)N(Cc4cccc(OC(F)(F)F)c4)C3)C2)n1 |
| 4% | COc1ccc2[nH]c3c(c2c1)CCN(C)C31CCN(C(=O)c2cn(C)cn2)CC1 |
| 3%[70.6 µM] | COCCn1c(C)nnc1-c1cc(-c2cccc(N(C)C)c2)ccn1 |
| -8%[70.6 µM] | COc1cc(F)ccc1-c1ccc(COc2ccc3c(cnn3CCC(=O)O)c2)cc1 |

An excerpt from above in order of their number in NPR1 antag, lowest first:
| NPR1 antag | SMILES |
| --- | --- |
| -1% | CCOc1ccccc1C(=O)N1CCC[C@H]1c1nc(-c2ccc(F)cc2)no1 |
| 4% | COc1ccc2[nH]c3c(c2c1)CCN(C)C31CCN(C(=O)c2cn(C)cn2)CC1 |
| 5% | CCc1csc(CNC2CCN(C(=O)c3ccccc3)CC2)n1 |

Source: PubChem (National Center for Advancing Translational Sciences (NCATS))
